# High-throughput results as filed in PubChem.
# HNF4A DNA FP: change in binding of human HNF4A to DNA, primary screen, biochemical, fluorescence polarization, FITC-DNA; 360,000 compounds, 0.3% hits; activity change, % at 10 µM; 1 h; Hepatocyte nuclear factor 4-alpha (Homo sapiens), P41235; in the data active means activity change above about 30%, passing the limit was not always enough;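 further: controls were the assay level and a saturating level of protein; the project sought stronger binding though the title names inhibitors; some compounds called inactive have numbers as strong as hits; positive values seem to mean higher polarization but the record does not say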
# Target sequence (P41235 whole entry, looked up): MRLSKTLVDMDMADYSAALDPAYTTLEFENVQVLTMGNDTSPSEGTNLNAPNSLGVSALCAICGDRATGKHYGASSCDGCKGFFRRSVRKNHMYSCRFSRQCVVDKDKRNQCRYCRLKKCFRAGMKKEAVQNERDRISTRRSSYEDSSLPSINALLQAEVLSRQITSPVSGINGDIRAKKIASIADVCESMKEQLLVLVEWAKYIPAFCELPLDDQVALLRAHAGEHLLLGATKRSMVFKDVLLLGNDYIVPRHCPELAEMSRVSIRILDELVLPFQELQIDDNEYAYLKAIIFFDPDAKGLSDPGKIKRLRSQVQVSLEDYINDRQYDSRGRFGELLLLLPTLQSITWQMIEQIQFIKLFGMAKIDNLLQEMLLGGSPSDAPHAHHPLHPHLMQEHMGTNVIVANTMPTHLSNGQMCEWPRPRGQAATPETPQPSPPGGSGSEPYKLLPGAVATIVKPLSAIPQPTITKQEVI
# MLL AF4-AF9 inh: inhibitors of AF4 peptide binding to AF9, primary screen, biochemical, AlphaScreen, biotin-AF4 peptide, FLAG-AF9, single point. Protein AF-9 (Homo sapiens), P42568. inhibition, % at 10 µM. 350,000 compounds, 0.47% hits. AID 651704, 2012;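 active means every replicate reaching a set inhibition limit, whatever the replicate mean, cut at about 25% in these data; inconclusive means mean inhibition reaches that limit but some replicates miss it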;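 further: 0% = plate neutral control median and 100% = total signal loss; the record names both 10 and 1 µM as test concentration; the first replicate is given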
# Vif A3G: inhibitors of Vif binding to APOBEC3G peptide, primary screen, biochemical, TR-FRET, GST-Vif 1-94, biotin-A3G peptide, dose response retest (AID 1117319). 260,000 compounds, 0.57% hits. Virion infectivity factor (Human immunodeficiency virus type 1 group M subtype B (isolate …. inhibition, %, or IC50 in µM where a hit was titrated. TR-FRET GST-Vif / biotin-A3G peptide binding; higher % means a stronger effect; test concentration not given here; strong numbers were not always called active;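 active means above the screen mean plus three standard deviations and confirmed in dose response; inconclusive means results disagree or hit not tested in dose response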;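 further: Vif residues 1-94 fused to GST binding biotinylated APOBEC3G peptide 110-148; 0% = full assay without inhibitor and 100% = GST in place of GST-Vif; retest series ran down from 100 µM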
# UCH37 DUB inh: inhibitors of human UCH37 deubiquitinase, primary screen, biochemical, Ub-AMC cleavage, fluorescence. Ubiquitin carboxyl-terminal hydrolase isozyme L5 (Homo sapiens), Q9Y5K5. purified proteasome/UCH37. inhibition, % (test concentration not listed). 330,000 compounds, 0.33% hits;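 active means mean of two replicates above 20%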;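 further: 0% = compound-free wells with enzyme and 100% = wells lacking proteasome; stock transfer was 100 nL into about 20 µL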
# Target sequence (Q9Y5K5 whole entry, looked up): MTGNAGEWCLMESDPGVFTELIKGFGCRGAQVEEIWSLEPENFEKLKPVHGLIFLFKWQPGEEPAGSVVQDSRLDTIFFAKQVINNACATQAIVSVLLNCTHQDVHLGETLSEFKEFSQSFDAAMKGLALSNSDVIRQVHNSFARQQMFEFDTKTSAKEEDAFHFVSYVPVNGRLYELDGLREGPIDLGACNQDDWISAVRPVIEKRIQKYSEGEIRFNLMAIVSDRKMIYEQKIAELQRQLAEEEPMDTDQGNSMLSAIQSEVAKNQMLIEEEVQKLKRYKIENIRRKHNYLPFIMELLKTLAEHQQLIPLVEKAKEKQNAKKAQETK
#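 Material: Human UCH37 enzyme supplied as purified proteasome complex | Schedule: 30 min preincubation with enzyme, 25 min cleavage at room temperature | Detection: AMC fluorescence 355/460 nm | Measure: % inhibition of Ub-AMC cleavage fluorescence | Controls: Wells without proteasome as full block, compound-free enzyme plus substrate as uninhibited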
# RanGTP-Impb inh: inhibitors of RanGTP-importin-beta interaction, primary screen, biochemical, FRET, CFP-Ran, YFP-importin-beta, homogeneous | inhibition, % (concentration not given with the values) | cell-free CFP-Ran/YFP-importin-beta FRET ratio | 300,000 compounds, 1.1% hits;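 active means most replicates above 15%; inconclusive means exactly half above 15%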;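 further: 0% = DMSO wells and 100% = Ran loaded with GDP instead of GTP; wells of about 40 µL received 100 nL stock; the first replicate is given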
# Ecoli growth: E. coli growth inhibition, primary screen, OD600; Escherichia coli growth, 23 h; hits give low values; OD600 absorbance (test concentration not listed); 330,000 compounds, 0.21% hits;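 active means OD600 absorbance below the run mean of sample wells minus 3.6 SD, in any replicate, cut at about 0.56 in these data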;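 further: stock transfer was 300 nL into about 60 µL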
# FGF22 binding: binders of human FGF22 protein, primary screen, FGF22 synaptogenesis inhibitor project, biophysical, thermal shift, single point | Fibroblast growth factor 22 (Homo sapiens), Q9HCT0 | recombinant FGF22 thermal shift, SYPRO orange fluorescence; percent of sucrose octasulfate shift, DMSO zero | 340,000 compounds, 1.5% hits | calls only at 9.99 µM;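 active means melting point raised past a set limit in the mean and every replicate; inconclusive means no clear call; three in four hits are not shown here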
# Target sequence (Q9HCT0 whole entry, looked up): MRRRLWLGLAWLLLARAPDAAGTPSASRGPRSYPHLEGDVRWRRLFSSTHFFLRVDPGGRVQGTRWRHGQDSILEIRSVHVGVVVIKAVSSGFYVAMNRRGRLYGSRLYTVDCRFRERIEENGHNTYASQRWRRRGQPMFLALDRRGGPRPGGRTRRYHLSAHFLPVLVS
# Active calls of the source: *; i = inactive; ? = inconclusive; . = not tested or not shown. Only part of the results is shown; count on the stated rates, not on these rows.
SMILES,HNF4A DNA FP,MLL AF4-AF9 inh,Vif A3G,UCH37 DUB inh,RanGTP-Impb inh,Ecoli growth,FGF22 binding
CCOc1ccc(CCNC(=O)COC(=O)c2ccc(C)c(S(=O)(=O)N3CCOCC3)c2)cc1OCC,2.2,0.1,-2%,.,.,.,i
CCCCC(=O)Nc1ccc2c(c1)nc(CCN1CCN(c3ccccn3)CC1)n2C,3.5,-2.8,0%,-0.7,2.5,0.69,i
Cc1ccc(S(=O)(=O)Cn2nnnc2CN2CCOCC2)cc1,1.8,-4.8,3%,2.2,5.0,0.73,.
CC(CN1CCCC1)OC(=O)COc1ccccc1 (centres undefined),-1.0,.,8%,-0.5,-3.9,0.66,.
Cc1ccc(-n2nc3c(c2NC(=O)c2cccs2)CSC3)cc1,1.3,.,11%,-1.2,-2.1,0.66,.
CC(C)(C)NC(=O)Cc1ccc(S(=O)(=O)N2CCCC2)s1,2.3,.,17%,1.7,1.0,0.76,.
O=C(Cn1c(NCCCO)nc2ccccc21)c1ccc(Br)cc1,5.9,.,2%,2.7,6.0,0.67,.
COc1ccc2nc(NC(=O)CSc3nc4cccnc4n3C)sc2c1,0.5,.,2%,-0.9,0.7,0.73,.
Cc1cccc(C)c1-n1nnnc1C1(C)CCC(=O)N1CCCn1ccnc1 (centres undefined),0.8,-2.8,.,.,.,.,i
O=C(NC1CCCCC1)C(c1ccco1)N(C(=O)c1csnn1)c1cccc(Cl)c1 (centres undefined),1.5,-1.3,.,3.2,-2.6,0.71,i
CCCn1c(C(CO)Nc2nc(-c3cccc(Br)c3)cs2)nc2ccccc21 (centres undefined),2.7,-22,.,4.8,-0.8,0.68,i
O=C(COc1ccccc1)N1CCN(C(=O)c2cccc(F)c2)CC1,-2.8,.,19%,0.0,4.1,0.68,.
Cc1sc2c(c1C)CN(Cc1ccncc1)CN2C(=O)c1ccco1,0.9,.,-4%,4.2,2.3,0.61,.
CC1(C)Cc2nc3oc4c(SCC(N)=O)ncnc4c3cc2CO1,5.5,0.6,6%,0.2,0.0,0.71,i
CCCNC(=O)CCn1nc(-c2ccc(Cl)cc2)c2ccccc2c1=O,-3.4,0.0,.,8.0,2.8,0.65,i
C(=N\n1cnnc1)/c1ccc(OCc2ccccc2)cc1,10,.,0%,.,-5.1,.,.
CCOc1ccc(N2CC(C(=O)N3CCCCC3)CC2=O)cc1 (centres undefined),3.4,1.7,.,3.8,2.7,0.67,i
CCN(CC(=O)Nc1c(F)cccc1F)C(=O)CNC(=O)c1ccc2ccccc2c1,4.4,-2.6,-14%,2.4,.,0.67,i
COc1cc(C#Cc2c(-c3cncn3C)n(C)c3ccc(-c4ccc5[nH]ccc5c4)cc23)cc(OC)c1,5.2,-6.4,.,-37,.,0.68,i
CCOc1ccc(-n2c(SCC(=O)Nc3cc(C(=O)O)ccc3Cl)nc3ccccc3c2=O)cc1,-2.6,-2.8,-3%,1.0,4.1,0.64,i
CCOC(=O)CSc1nnc(CNC(=O)c2ccco2)n1-c1ccc(F)cc1,1.2,.,19%,0.8,-5.2,0.69,.
CCN(CC)C(=O)CSc1nc2cc3c(cc2c(=O)n1CCCC(=O)NCCc1ccc(OC)c(OC)c1)OCO3,1.8,-3.5,6%,3.7,4.4,0.64,i
Cc1ccc(S(=O)(=O)N2CCOCC2)cc1C(=O)NCc1cccnc1,4.0,1.1,2%,3.0,-0.2,0.66,i
COc1ccc(NC(=O)COC(=O)Cc2cccs2)cc1Cl,0.6,-1.6,5%,.,.,.,i
CC(=O)Oc1ccc2occ(C(=O)c3ccccc3)c2c1,1.9,2.5,.,3.7,-12,0.57,i

# 4 entries from above, with values under each structure.
# Sequence of screens: HNF4A DNA FP	MLL AF4-AF9 inh	Vif A3G	UCH37 DUB inh	RanGTP-Impb inh	Ecoli growth	FGF22 binding
COc1ccc2nc(NC(=O)CSc3nc4cccnc4n3C)sc2c1
    0.5	.	2%	-0.9	0.7	0.73	.
Cc1cccc(C)c1-n1nnnc1C1(C)CCC(=O)N1CCCn1ccnc1 (centres undefined)
    0.8	-2.8	.	.	.	.	i
O=C(NC1CCCCC1)C(c1ccco1)N(C(=O)c1csnn1)c1cccc(Cl)c1 (centres undefined)
    1.5	-1.3	.	3.2	-2.6	0.71	i
CCCn1c(C(CO)Nc2nc(-c3cccc(Br)c3)cs2)nc2ccccc21 (centres undefined)
    2.7	-22	.	4.8	-0.8	0.68	i

# Next results
SMILES,HNF4A DNA FP,MLL AF4-AF9 inh,Vif A3G,UCH37 DUB inh,RanGTP-Impb inh,Ecoli growth,FGF22 binding
COc1ccc(CSc2ncn[nH]2)cc1[N+](=O)[O-],-0.2,.,-1%,4.7,-0.2,0.67,.
Oc1[nH]c2ccccc2c1N=Nc1nc(Nc2ccccc2)nc(N2CCOCC2)n1,1.1,1.7,-1%,3.4,-1.0,0.68,i
COc1ccc(N(CC(=O)NCc2ccc(C)cc2)S(=O)(=O)c2c(C)[nH]c(=O)[nH]c2=O)cc1,2.6,-6.1,.,0.5,0.6,0.69,i
O=C(NCc1ccccc1)c1c[nH]c2ccc(F)cc2c1=O,4.8,-14,.,-2.0,-1.2,0.7,i
O=C(/C=C/c1ccc(Cl)c(Cl)c1)NC1=NCCS1,4.2,-0.8,0%,6.1,8.5,0.71,i
O=C(NNC(=O)C1CCN(S(=O)(=O)c2ccc(Cl)cc2)CC1)c1ccc(S(=O)(=O)N2CCCCC2)cc1,-3.1,11,-9%,-0.6,-0.5,0.65,i
Cc1nnc(N2CCN(c3ccccc3)CC2)[nH]c1=O,0.1,.,21%,4.2,-0.3,0.73,.
CC(C)N1CCC(=NNC(=O)c2ccc(Br)o2)CC1,0.4,.,8%,1.0,-2.0,0.69,.
O=C(NC(=S)N1CCN(C/C=C/c2ccccc2)CC1)c1c(F)cccc1F,0.9,-3.4,28%,5.2,3.5,0.7,i
Nc1ccc2c(c1)OCCOCCOCCOCCOCCO2,1.6,2.5,?,5.0,2.9,0.66,i
CCc1nc(C)c(-c2ccccc2)c(=O)[nH]1,0.9,.,29%,0.2,0.1,0.68,.
O=C(OCCO)c1c(-c2ccccc2)oc2c1C(OCCO)CCC2 (centres undefined),-5.2,-1.0,.,.,.,.,i
COCc1cc(=O)n2[nH]c(-c3ccc(C)cc3)cc2n1,-1.3,.,4%,-19,-0.8,0.69,.
Cc1cccc(OCC(=O)N(Cc2ccco2)C2CCS(=O)(=O)C2)c1C (centres undefined),0.7,0.8,.,1.7,-3.3,0.67,i
CC(=O)N(Cc1cc(=O)[nH]c2ccccc12)c1ccccc1,0.8,.,-1%,1.8,-0.5,0.7,.
Cn1c(NCCO)nc2c(c1=O)C1(CCCCC1)Cc1ccccc1-2,-0.1,-1.7,-2%,-239,-1.6,0.74,i
CC(C)NC(=O)Cn1cc(C(=O)COc2ccccc2)c2ccccc21,-0.5,-1.6,9%,-0.4,?,0.74,i
CCN1CCN(C(=O)c2cc3ccc(OC)cc3[nH]2)CC1,-0.5,0.2,-6%,-3.1,-1.7,0.62,i
O=C(NCc1nc(-c2ccccc2)cs1)c1ccccc1,1.6,-2.1,-16%,4.8,6.0,0.61,.
Cc1cc(C)nc(N/N=C/c2c(C)oc3ccccc23)n1,3.6,7.4,-7%,.,0.7,.,i
CC(=O)c1sc(-c2ccccc2)cc1NS(=O)(=O)c1ccc(C)cc1,6.2,1.0,.,-7.0,8.5,0.68,i
O=[N+]([O-])c1ccc(CNC2CCCc3ccccc32)cc1 (centres undefined),-0.5,7.0,.,0.8,25*,0.65,.
COc1ccc(CN(CC(=O)NCCc2ccccc2)C(=O)CCC(=O)Nc2ccccn2)cc1,1.2,-1.3,.,5.6,1.8,0.71,i
O=C(NCC(=O)N1CCOCC1)OCc1ccccc1,-3.4,-2.5,0%,5.4,7.0,0.64,i
COc1ccccc1NC(=O)CON=C(N)CC(=O)NC1CCCCC1,-11,-5.3,-1%,-0.4,.,0.67,i
# New compounds follow
SMILES,HNF4A DNA FP,MLL AF4-AF9 inh,Vif A3G,UCH37 DUB inh,RanGTP-Impb inh,Ecoli growth,FGF22 binding
COc1ccc(N2CCN(S(=O)(=O)c3ccc(OC)c(C(=O)N4CCCCC4)c3)CC2)cc1,-1.1,3.9,.,1.9,0.0,0.69,i
CC(=O)Nc1ccc(S(=O)(=O)N(C)CC(=O)Nc2nc3ccccc3[nH]2)cc1,-1.9,1.3,7%,1.5,.,0.68,i
CCOC(=O)CC1C(=O)NCCN1c1nc2ccc(C)cn2c(=O)c1/C=C1\SC(=S)N(CC(C)C)C1=O (centres undefined),85,.,-7%,9.9,-382,0.69,.
COC(=O)C1=[N+]([O-])OC(C(=O)OC)C1c1c[nH]c2ccccc12 (centres undefined),2.7,5.1,5%,4.3,1.8,0.69,i
C=CCn1c(SCC(=O)Nc2c(C)cccc2C)nnc1-c1ccncc1,-1.5,.,1%,4.8,-0.2,0.68,.
Cc1ccc(/C=N/NC(=O)Cc2cccn2C)s1,2.8,.,15%,.,0.5,.,.
CC(C)(C)Cc1c(-c2ccc(Cl)cc2)nc2ccc(Br)cn12,2.1,-3.7,-5%,.,.,.,i
CCOC(=O)C1=C(C)OC(N)=C(C#N)C1c1cc2cc(C)ccc2nc1N1CCCCC1 (centres undefined),1.7,.,-13%,-65,-4.1,0.69,.
Cc1cccc(/N=C/c2c(O)[nH]c3ccccc23)n1,20,.,17%,.,3.1,.,.
CSc1ccccc1NC(=S)NC1CCCC1,3.3,3.1,.,1.2,-1.2,0.71,i
CCOc1cc(NC(=S)NCCOC)c(OCC)cc1NC(=O)c1cccs1,.,1.8,-8%,1.2,7.7,0.68,i
CC(=O)c1c(O)cc(C(C)C)n(-c2ccccc2)c1=O,-1.0,.,-3%,-3.1,-1.4,0.64,.
CCn1c(SCC(=O)OC(C)C)nnc1-c1ccccc1OC,-0.6,-1.3,0%,3.2,-2.6,0.7,i
Cc1nn(C)c(C(=O)NNC(=S)Nc2ccc(F)cc2)c1[N+](=O)[O-],1.0,.,-4%,1.5,-0.9,0.67,.
COCCN1C[C@@H](CO)O[C@@H](n2cnc3c(NCCO)ncnc32)C1,-1.8,-1.0,.,.,.,.,i
COCCn1c(SCC(=O)NC(=O)NC2CCCCC2)nc2ccccc2c1=O,0.2,0.9,.,3.6,.,0.7,i
CCN(CC)CCC/C(=N\O)C(O)(c1ccccc1)c1ccccc1,2.9,-1.9,.,.,-0.1,.,i
CCCS(=O)(=O)c1c(S(=O)(=O)CCC)c2cnccn2c1C(=O)c1ccc(CC)cc1,0.5,.,-10%,-2.7,2.5,0.74,.
COc1ccc(S(=O)(=O)N2CCCCC2c2cc(C(=O)NCc3ccc(F)cc3)no2)cc1 (centres undefined),-0.9,-1.3,.,.,.,.,i
COC(=O)Cn1ncn2cccc2c1=O,1.8,.,31%,-2.5,-0.6,0.74,.
COc1cccc(NC(=O)Nc2ccc3c(c2)CCC3)c1,0.6,-1.4,5%,1.2,0.6,0.71,i
Cc1ccc(Cc2c(-c3ccc(Cl)cc3)nc3ccc(Cl)cn23)cc1,-1.9,-0.5,-4%,.,.,.,i
CC(C)(C)S(=O)(=O)N1Cc2cc(=O)n(Cc3ccccc3)c(CCO)c2[C@H]1CCO,-2.9,1.2,0%,-19,.,0.65,i
CC1CCCC(NC(=O)COC(=O)COc2ccccc2Cl)C1C (centres undefined),4.2,-2.8,-5%,3.7,2.9,0.68,i
FC(F)(F)Sc1ccc(NC(=S)NCc2ccccc2)cc1,-4.6,-0.2,0%,8.0,0.8,0.6,i
